GIRK2 act = activators of human GIRK2 potassium channels. G protein-activated inward rectifier potassium channel 2 (Homo sapiens), P48051. HEK293-GIRK2 thallium flux, Thallos fluorescence. calls only for hits at 25 µM. 63,000 compounds, 0.05% hits;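 active means among the strongest 0.2% of first-round signals and kept after retests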;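 further: first round at about 10 µM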
Target sequence (P48051 whole entry, looked up): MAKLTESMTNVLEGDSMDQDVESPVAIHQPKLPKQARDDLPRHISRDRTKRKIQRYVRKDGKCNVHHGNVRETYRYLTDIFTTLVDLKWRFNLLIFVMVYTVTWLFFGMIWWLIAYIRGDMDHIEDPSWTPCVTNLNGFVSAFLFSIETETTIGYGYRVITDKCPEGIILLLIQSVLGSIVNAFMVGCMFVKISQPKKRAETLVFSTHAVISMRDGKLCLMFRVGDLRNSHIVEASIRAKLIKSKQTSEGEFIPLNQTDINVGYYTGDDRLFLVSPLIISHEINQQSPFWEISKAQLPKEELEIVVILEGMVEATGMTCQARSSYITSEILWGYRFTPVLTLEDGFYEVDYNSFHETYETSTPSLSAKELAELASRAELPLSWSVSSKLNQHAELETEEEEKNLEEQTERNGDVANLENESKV
Calls only; i = inactive. Some of the compounds tested. The share of hits here may be higher or lower than overall.

SMILES	GIRK2 act
CC1(C)CC2C3=CCC4[C@@]5(C)CC[C@H](OC6OCC(O)C(OC7OC(CO)C(O)C(O)C7O)C6O)C(C)(C)C5CC[C@@]4(C)[C@]3(C)C[C@H](O)[C@@]2(CO)[C@H](OC(=O)c2ccccc2)C1 (some centres undefined)	i
O=C(Cn1c(=O)oc2ccccc21)Nc1ccc(N2CCCS2(=O)=O)cc1	i
COc1ccc(NC(=O)CCc2ccccc2)cc1N1CCCC1=O	i
O=C(Nc1ccccc1Cl)c1cccc(S(=O)(=O)N2CCOCC2)c1	i
CCOC(=O)c1ccc(NC(=O)Cn2nc3c(cc2=O)CCCC3)cc1	i
O=C(NCc1ccc(F)cc1Cl)c1cn(CC(O)c2ccccc2)nn1 (centres undefined)	i
CCCCCCCCCCCCCCCC(=O)NC(C)C	i
C[C@]12CC(=O)C3C[C@@]1(O)OC(O2)[C@H]3COC(=O)c1ccccc1	i
C#CCCNC(=O)CC(C)(C)C	i
CCOc1ccccc1NC(=O)NCCc1ccoc1	i
O=C(NC(C(=O)N1CCN(C(=O)c2ccco2)CC1)S(=O)(=O)c1ccccc1)c1ccccc1 (centres undefined)	i
Cc1cc2oc3c(c(=O)c2cc1C)C(c1ccc(C(C)C)cc1)N(CCN(C)C)C3=O (centres undefined)	i
CCOc1ccc(NC(=O)c2sccc2S(=O)(=O)N2CCN(c3ccc(F)cc3)CC2)cc1	i
O=C(Cn1cccc(-c2nc(-c3ccccc3)no2)c1=O)Nc1ccccc1F	i
CSc1ccccc1NC(=O)C(=O)NCC(C)(O)c1ccc2c(c1)OCO2 (centres undefined)	i
Cc1c(C(=O)N2CCCc3ccccc32)nnn1-c1ccc2noc(-c3ccccc3)c2c1	i
Cc1cc(F)ccc1NC(=O)Cn1ccn2nc(-c3ccc(Cl)cc3)cc2c1=O	i
CCCCn1cnc2c(-c3ccc(OC)c(OC)c3)csc2c1=O	i
Cc1ccc(-n2c(-c3ccccc3)cn3c4c(=O)n(CC(N)=O)c(=O)n(C)c4nc23)cc1Cl	i
COc1ccc(-n2nnc(C(=O)N3CCN(S(=O)(=O)C4CC4)CC3)n2)cc1	i
COc1cccc(N2CCCn3c2nc2c3c(=O)n(Cc3ccccc3F)c(=O)n2C)c1	i
CCC(C)N1COc2ccc3c(=O)c(Oc4ccccc4OC)coc3c2C1 (centres undefined)	i
O=C(Cn1cccc1)Nc1ccccc1-c1ccc(=O)[nH]n1	i
COc1ccc(NC(=O)COc2ccccc2F)cc1N1CCCCC1=O	i
COc1cc2c(cc1OC)CN(C(=O)c1nnn(-c3ccc(F)cc3)n1)CC2	i
COCCn1c(C)cc(C(=O)CSc2nnnn2-c2ccccc2)c1C	i
O=C(COc1ccccc1)Nc1ccc(Cl)c2ncsc12	i
COc1ccc(-c2cc3ccc(OCC(=O)OC(C)C)cc3oc2=O)c(OC)c1	i
CCCCCC(O)CC(O)CC(=O)OC(CCCCC)CC(O)CC(=O)OCC(O)C(O)C(O)C(O)CO (centres undefined)	i
CSc1ccccc1NS(=O)(=O)c1cc2c3c(c1)CCC(=O)N3CCC2	i
O=C(Nc1ccc2c(c1)OCCO2)C1CCN(S(=O)(=O)c2ccc(F)cc2)CC1	i
CCCCCn1c(SCC#N)nc2cc(C(=O)N(CC)CC)ccc2c1=O	i
COc1ccc(OC)c(-c2cc(C(=O)NCc3ccc(F)cc3F)[nH]n2)c1	i
COc1cc(NC(=O)Nc2ccc3c(c2)CCCN3C(=O)C2CC2)cc(OC)c1	i
O=C(Oc1ccc(Cl)cc1Cl)c1ccc2nccnc2c1	i
O=C(CN1CCN(C(=O)c2c(F)cccc2Cl)CC1)c1ccco1	i
CC(=O)c1cccc(NC(=O)CSC2=NNC3C4CC(c5ccccc5)NN4C=CN23)c1 (centres undefined)	i
CCOC(=O)c1cnc2cc(C(F)(F)F)ccc2c1N1CCC(C(=O)OC)CC1	i
COc1cc(OC)c(NC(=O)CSc2ccc(-c3nc(C)no3)cn2)cc1Cl	i
O=C(NCC1(O)CCc2ccccc2C1)c1ccco1 (centres undefined)	i
O=C(c1ccccc1C(F)(F)F)N1CCN(CCn2ccnc2)CC1	i
CSc1cccc(NC(=O)Cn2cnc3c(-c4ccc(F)cc4)cn(C)c3c2=O)c1	i
COc1cccc(OCC(=O)Nc2ccc(OC)c(N3CCCCC3=O)c2)c1	i
CC(O)(CNS(=O)(=O)Cc1cc(F)ccc1F)c1ccco1 (centres undefined)	i
COc1ccc(C2CC(c3ccccc3)=NN2C(C)=O)cc1O (centres undefined)	i
COc1cc(NC(=O)COc2cc(C)nc(N3CCN(c4ccccc4)CC3)n2)cc(OC)c1OC	i
COc1cc(S(=O)(=O)N2CCN=C2c2ccccc2)c(OC)cc1C	i
Cc1cc(C)nc(NC(=O)c2ccc(Cl)c(S(=O)(=O)N3CCCC3)c2)n1	i
CCOc1ccccc1NC(=O)N(Cc1ccsc1)C1CC1	i
O=S(=O)(c1ccc2ccccc2c1)N1CCC(Oc2ccccn2)CC1	i
O=S(=O)(O)c1ccc(-c2cccc(C(F)(F)F)c2)cc1	i
CCn1cc(C(=O)Nc2nccs2)c(=O)c2cc(Cl)ccc21	i
CSCC(C)(O)CNS(=O)(=O)c1cccc(C)c1 (centres undefined)	i
O=S(=O)(NCC1(c2ccccc2)CCOCC1)c1c(F)cccc1F	i
CC1CCN(S(=O)(=O)c2nn(C)cc2C(=O)NCCCc2ccccc2)CC1	i
COc1ccccc1-n1ccnc(NCCc2ccccc2)c1=O	i
N#Cc1nc(-c2cccc(Cl)c2)oc1N1CCN(C(=O)c2cccc(Cl)c2)CC1	i
CCSc1nnc(NC(=O)C2CCN(c3ccc(C)nn3)CC2)s1	i
COc1cccc(C(=O)Nc2ccc3c(c2)CCC(=O)N3C)c1OC	i
COc1ccc2c(c1)c(CC(=O)N1CCOCC1)c(C)n2C(=O)c1ccc(Cl)cc1	i
Continuation:
SMILES	GIRK2 act
COc1ccc(S(=O)(=O)NCC(c2ccsc2)N2CCc3ccccc3C2)cc1C (centres undefined)	i
O=S(=O)(CCOc1ccccc1)Nc1cccc(Cl)c1	i
COc1ccc(Cl)cc1NC(=O)N1CCCC(c2nnc(Cc3ccc(F)cc3)o2)C1 (centres undefined)	i
CC(Cn1nc(-c2cccs2)ccc1=O)C(=O)NCC(F)(F)F (centres undefined)	i
Cc1cc(C(=O)NCC(Cc2cccc(F)c2)N2CCCCC2=O)no1 (centres undefined)	i
CCOCCCn1c(C)cn2c3c(=O)n(Cc4ccccc4F)c(=O)n(C)c3nc12	i
O=C(CSc1nc2ccccc2c(=O)n1NC(=O)Cc1ccccc1)NCc1ccccc1Cl	i
O=C(NCCc1ccsc1)NC1CCCCCC1	i
Cc1cc(NC(=O)c2c(-c3ccccc3Cl)noc2C)sn1	i
COc1ccc(-c2c(C)oc3cc(OCCN4CC5CC(C4)c4cccc(=O)n4C5)ccc3c2=O)cc1 (centres undefined)	i
CCOC(=O)Cn1c(=O)c2c(nc3n2CCCN3c2ccc(C)cc2C)n(C)c1=O	i
CCS(=O)(=O)NCC1(c2ccccc2)CCOCC1	i
O=c1ccc(-c2ccc3c(c2)OCO3)nn1Cc1nc(-c2ccc(F)cc2)no1	i
Cc1cnc(NC(=O)c2csc(Nc3ccc(S(C)(=O)=O)cc3)n2)s1	i
CC(C)NC(=O)NCC1(c2ccccc2)CCOCC1	i
COC(=O)CSc1nnc(C)c2cnn(-c3ccc(C)c(C)c3)c12	i
O=C(c1cccc2ccccc12)N(CCc1cccs1)Cc1ccoc1	i
Cc1ccc(Cl)cc1NC(=O)c1c(O)c2ccccc2[nH]c1=O	i
O=C(NCc1cccs1)c1sccc1S(=O)(=O)N1CCN(c2cccc(Cl)c2)CC1	i
CCc1ccccc1Nc1nn2c(=O)c3ccc(C(=O)NCc4cccc(OC)c4)cc3nc2s1	i
Cc1cc(C)n(-c2nc3c(c(=O)n(CC(N)=O)c(=O)n3C)n2CC(C)C)n1	i
CCOC(=O)c1c(NCc2cccs2)c2ccc(Cl)cc2[nH]c1=O	i
COc1ccccc1C(=O)NCCCS(=O)(=O)N1CCN(c2ccccc2)CC1	i
COC(=O)C1CCN(c2nc3ccccc3nc2C(C#N)C(=O)OCC(C)C)CC1 (centres undefined)	i
Cc1c(C)n2c3c(=O)[nH]c(=O)n(C)c3nc2n1CCCNc1ccccc1Cl	i
Nc1ccc2cn[nH]c2c1	i
O=C(Nc1nccs1)c1nnn(-c2ccc(Cl)cc2)n1	i
COc1ccc(C)cc1NC(=O)c1cc(=O)c(OCc2ccccc2)co1	i
O=C(CSc1nc2ccccc2o1)N1CCC(Oc2ccc(C(F)(F)F)cn2)CC1	i
Cn1c(=O)c2c(nc(N3CCCC3)n2CC(O)COc2ccccc2)n(C)c1=O (centres undefined)	i
CC(C)c1ccc(C2c3c(oc4ccccc4c3=O)C(=O)N2CCN2CCOCC2)cc1 (centres undefined)	i
Cc1cc(C)nc(Nc2nc(C(=O)NCCc3c[nH]c4ccccc34)cs2)n1	i
Cc1nn(C(C)CC(=O)O)c(C)c1Br (centres undefined)	i
COc1ccc(S(=O)(=O)N2CCCC(C)C2)c(C)c1C (centres undefined)	i
O=C(CN1C(=O)CCC1=O)N1CCC(c2nnc(C3CC3)o2)CC1	i
Cc1ccc(NC(=O)NCCNc2ccc(-n3cccc3)nn2)c(Cl)c1	i
Cc1cc(C)n(CCNS(=O)(=O)c2ccc(N3CCCCS3(=O)=O)cc2)n1	i
COc1ccccc1CC(=O)Nc1cc(N2CCC(C)CC2)ncn1	i
COC(=O)c1ccc(NC(=O)CSc2ccc(N3CCOCC3)nn2)cc1	i
COc1ccc(N2CCN(CC(=O)N3CCC(O)CC3)C2=O)cc1	i
COc1ccc(F)cc1S(=O)(=O)N1CCC(Oc2ccc(Cl)cn2)CC1	i
C=CCNC(=O)c1cc(-c2ccccn2)nc2ccccc12	i
O=C(c1nnn(-c2ccccc2)c1-c1ccccc1)N1CCOCC1	i
Cc1nccn1-c1ccc(=O)n(CCNC(=O)C(C)Oc2cccc(F)c2)n1 (centres undefined)	i
CC(C)C12C=CC(C)(CC1)C1C(=O)N(c3ccccc3)C(=O)C12 (centres undefined)	i
COc1ccc(OC)c(Nc2c(C(=O)N3CCCCCC3)cnc3nc(C)ccc23)c1	i
Cc1noc(CNC(=O)CN2C(=O)c3ccccc3C2=O)n1	i
CCCCCCCCCCCCCCCCOCC(COP(=O)([O-])OCC[N+](C)(C)C)OC(=O)CCC (centres undefined)	i
CCCCn1c(=O)c2c(nc3n2C(C)C(C)=NN3CC(=O)OC)n(C)c1=O (centres undefined)	i
CCOc1ccc(-c2nc(CSc3nc(C)c(Cc4ccccc4)c(=O)[nH]3)c(C)o2)cc1	i
Cn1c(C2CCCN(S(C)(=O)=O)C2)nn(Cc2ccc(Cl)cc2Cl)c1=O (centres undefined)	i
CC(C)NC(=O)Cn1nc2n(C)c(=O)c3ccc(C(=O)NC4CCCC4)cc3n2c1=O	i
COc1ccc(NC(=O)CSc2nc(N3CCc4ccccc4C3)nc3ccccc23)c(OC)c1	i
COc1ccc(NC(=O)Cn2nc3n(C)c(=O)c4c(c(-c5ccccc5)cn4C)n3c2=O)cc1	i
CC(C)(C)NS(=O)(=O)c1ccc(NC(=O)c2cc(-c3ccccn3)nc3ccccc23)cc1	i
Cc1ccccc1-n1c(C)c(C)n2c3c(=O)n(CC(N)=O)c(=O)n(C)c3nc12	i
O=C(CCc1csc(NC(=O)c2ccc(=O)[nH]c2)n1)NCCc1c[nH]c2ccccc12	i
Cc1ccc2nc3c(cc(C(=O)N4CCCC(C)C4)n3C)c(=O)n2c1 (centres undefined)	i
CC1CCCN(c2nccn3c(=O)n(CC(=O)Nc4ccc(Cl)cc4F)nc23)C1 (centres undefined)	i
CC1CCN(C(=O)c2cnc3ccc(F)cc3c2S(=O)(=O)c2ccc(F)cc2)CC1	i
(continued)
SMILES	GIRK2 act
COc1ccccc1-n1nnc(-c2nc(-c3ccc4c(c3)OCO4)cs2)c1C	i
CC1CCN(c2nc3ccccc3nc2C(C#N)C(=O)OC2CCCCC2)CC1 (centres undefined)	i
CCCn1c(=O)c2c(nc3n2CCCN3c2ccc(OCC)cc2)n(C)c1=O	i
O=C(NCC(O)c1ccsc1)C(=O)Nc1ccccc1 (centres undefined)	i
CCCOc1ccc(/C=C/C(=O)Nc2cccc(OC)c2)cc1	i
Cc1ccc(-n2ncc3c(=O)n(CC(=O)N4CCC(C)CC4)cnc32)cc1C	i

High-throughput results from PubChem.
